LASV entry inh = Lassa virus entry inhibition. Lassa virus pseudotype entry inhibition, cell reporter; control for the full effect not named in the record. actives 1.2% (n = 300,000). Potency, µM (series often up to 37.9 µM), for inactives: top-dose activity change, negative = inhibition, actives largely listed as inhibitors. AID 540256; active means well fitted inhibition curve with a large enough effect; inconclusive means small, poorly fitted or top-dose-only effect, or effect the other way; inactive means flat fitted curve, though single readings scatter; tested in HEK293 cells; also: % is scaled to controls: 0 for no effect and ±100 for the full control effect; nearly all actives have a fitted effect of over 50% in size; luciferase read-out
NS1 function inh = blocks influenza NS1 protein function; S. cerevisiae slowed by influenza A NS1, growth recovery by OD600; Potency, µM (top dose mostly 46.1 µM), inactives show top-dose activity, positive = more growth; actives 0.4% (n = 270,000); AID 2326; active means well fitted rising curve with a large enough effect; inconclusive means small, poorly fitted or top-dose-only effect; inactive means no such curve, though single readings can be large or run the other way; also: nearly all actives have a fitted effect of over 50% in size
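A cell-based growth assay was used: compounds that relieve NS1-induced slow growth of budding yeast raise OD600. Assay medium was yeast nitrogen base with ammonium sulphate and -URA supplement, pH 6.0, with 2% galactose.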
Cruzain inh noDet = blocks cruzain activity in detergent-free assay; P25779; purified cruzain, Z-FR-AMC fluorescence, no detergent; Potency, µM, for inactives: max response, negative = inhibition, hits mostly inhibitors; actives 2.3% (n = 200,000); AID 1476;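 also: plate controls were enzyme without inhibitor for no effect and buffer without enzyme for full effect; nearly all actives have a fitted effect of over 40% in size; top concentration of the series not given in the record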
Target sequence (P25779 123-467 limits assumed): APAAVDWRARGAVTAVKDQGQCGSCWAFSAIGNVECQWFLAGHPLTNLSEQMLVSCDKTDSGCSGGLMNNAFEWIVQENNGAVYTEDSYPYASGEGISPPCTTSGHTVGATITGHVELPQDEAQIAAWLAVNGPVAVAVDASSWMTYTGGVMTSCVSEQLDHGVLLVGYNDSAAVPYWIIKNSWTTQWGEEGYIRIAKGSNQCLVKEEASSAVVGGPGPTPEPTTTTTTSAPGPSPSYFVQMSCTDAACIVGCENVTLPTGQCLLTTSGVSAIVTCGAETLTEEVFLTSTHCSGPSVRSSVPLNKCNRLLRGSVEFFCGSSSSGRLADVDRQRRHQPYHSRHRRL
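Purified cruzain at 1.5 nM, pre-incubated 15 min with compound at room temperature in 100 mM sodium acetate pH 5.5, 5 mM DTT, 0.00005% Triton X-100. Reaction started with 2 uM Z-FR-AMC; AMC fluorescence increase over 60 s gives rate.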
Cruzain Triton = inhibitors of Trypanosoma cruzi cruzain with detergent; purified cruzain, Z-FR-AMC fluorescence, 0.01% Triton; Potency, µM, for inactives: max response, negative = inhibition, hits mostly inhibitors; actives 0.43% (n = 200,000);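 also: plate controls were neutral wells for no effect and buffer without enzyme for full effect; nearly all actives have a fitted effect of over 40% in size; top concentration of the series not given in the record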
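Read-out: AMC fluorescence (360 nm excitation, 450 nm emission), four reads over 2 min, first-to-third difference used. Conditions: cruzain 1.5 nM, Z-FR-AMC 2 uM, pH 5.5 acetate, 5 mM DTT, 0.01% Triton X-100.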
StopGo reporter = FMDV 2A StopGo reporter, luciferase signal. Potency, µM (titrated, usually from 57.9 µM), for inactives: at the top dose signal change, negative = less light. actives 1.2% (n = 410,000). human cells with a luciferase reporter of 2A StopGo recoding; control for the full effect not named in the record; active = well fitted falling curve with a large enough effect; inconclusive = small, poorly fitted or top-dose-only effect; inactive = no such curve, though single readings can be large or run the other way; tested in HEK293T cells; also: % is scaled to controls: 0 for no effect and ±100 for the full control effect; nearly all actives have a fitted effect of over 45% in size; luciferase light after 4 h
MARV entry inh = inhibitors of Marburg virus binding or cell entry. Marburg virus pseudotyped entry inhibition, cell reporter; control for the full effect not named in the record; about a third of the inactives were read at about 46 µM. Potency, µM (highest dose often 37.8 µM), for inactives: at the top dose activity change, negative = inhibition, hits mostly inhibitors. actives 1.8% (n = 300,000); active = well fitted inhibition curve with a large enough effect; inconclusive = small, poorly fitted or top-dose-only effect, or effect the other way; inactive = flat fitted curve, though single readings scatter; tested in HEK293 cells; about a fifth of its hits are not listed in these tables; also: % is scaled to controls: 0 for no effect and ±100 for the full control effect; luciferase read-out
SARS PLpro yeast = inhibitors of SARS-CoV papain-like protease in yeast | S. cerevisiae expressing SARS-CoV PLpro, growth rescue; control for the full effect not named in the record | Potency, µM (highest dose often 32.9 µM), inactives show at the highest dose activity, positive = growth rescue | actives 0.19% (n = 330,000); active means well fitted rising curve with a large enough effect; inconclusive means small, poorly fitted or top-dose-only effect; inactive means no such curve, though single readings can be large or run the other way; also: 0% is about no effect; nearly all actives have a fitted effect of over 55% in size; growth read by luminescence after 48 h
RE007 growth inh = less growth of the S. pombe RE007 Vpr strain; actives 0.21% (n = 360,000); S. pombe RE007 Vpr strain, BacTiter-Glo ATP luminescence, 24 h; control for the full effect not named in the record; AID 651644; Potency, µM (doses to about 92.2 µM), for the others: at the top dose activity change, negative = less growth; active = well fitted falling curve with a large enough effect; inconclusive = small, poorly fitted or top-dose-only effect; inactive = no such curve, though single readings can be large or run the other way;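 also: % is scaled to controls: 0 for no effect and ±100 for the full control effect; nearly all actives have a fitted effect of over 50% in size; the assay follows cell death caused by Vpr and the record does not say whether a fall means rescue or toxicity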
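Fission yeast RE007 carrying one integrated HIV-1 vpr copy, seeded at OD 0.01 in PMG+AL medium with 23 nL pinned compound. Grown 24 h at 30 degrees; viability read by BacTiter-Glo luminescence after 5 min.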
An asterisk follows results filed as active; ? = inconclusive; . = not tested or not shown; [ ] = another dose, or the depositor's remark. Unless noted, calls follow the shape of the dose curve; as a rule, active = well fitted curve in the direction sought with a large enough effect; inconclusive = small, poorly fitted or top-dose-only effect, or another doubt; inactive = no such curve, though single readings can be large; an effect the other way counts as inactive or inconclusive. Potency is read from the fitted curve at half-maximal effect.

no. | mol | LASV entry inh | NS1 function inh | Cruzain inh noDet | Cruzain Triton | StopGo reporter | MARV entry inh | SARS PLpro yeast | RE007 growth inh
1 | Cc1n[nH]c(C)c1S(=O)(=O)N(CC(=O)Nc1ccc2c(c1)OCCO2)c1ccc(C(C)C)cc1 | . | -54% | ? | -7.1% | ? | 8% | 9% | 12%
2 | COc1ccc(S(=O)(=O)N2CCOCC2)cc1C(=O)Nc1nc2ccccc2s1 | -5% | 3% | ? | -13% | . | 2% | 0% | -13%
3 | Cc1ccc(C(=O)Nc2ccccc2C(=O)NC(CC(=O)O)C(=O)O)cc1 (stereo unspecified) | 4% | -5% | -3% | -0.1% | . | 3% | 0% | -8%
4 | Cc1ccc(S(=O)(=O)NC(=O)NCC2CCN(S(=O)(=O)c3ccccc3)CC2)cc1 | ? | 3% | . | . | -2% | -12%[46.1 µM] | 1% | -13%
5 | Cc1cc(C)c(S(=O)(=O)N2CCN=C2c2ccccc2)cc1C | -16% | 1% | -5% | 4.8% | 32%[activator] | -19% | -2% | -2%
6 | Cc1ccc(N2C(=O)N(CC(=O)N3c4ccccc4CC3C)C(=O)C2C)cc1 (stereo unspecified) | ? | . | . | . | 0% | -2% | -1% | 2%
7 | CCOC(=O)c1cccc(NC(=O)C2CCN(S(=O)(=O)c3ccc4c(c3)oc(=O)n4C)CC2)c1 | -5%[46.1 µM] | . | 2% | -3.5% | -15% | -21%[46.1 µM] | . | .
8 | CCOc1cc(N2CCOCC2)c(OCC)cc1NC(=O)c1ccc(-n2ccnc2)c([N+](=O)[O-])c1 | 1%[46.1 µM] | -18% | . | . | -22% | ? | -20% | 6%
9 | COc1cccc(C(c2c(C)[nH]n(-c3ccccc3)c2=O)c2c(C)[nH]n(-c3ccccc3)c2=O)c1O | . | 15% | -1% | 0.8% | -18% | . | 0% | -6%
10 | O=C(Nc1cccc2c1CCCC2)c1ccco1 | -7% | -85% | 3% | 4.5% | -15% | 23% | -5% | -20%
11 | COc1ccc(Br)cc1CNC(=O)CCCn1c(=O)c2cccn2c2ccccc21 | -8%[46.1 µM] | . | -3% | -1.5% | -6% | . | . | .
12 | Cn1c(Oc2ccccc2NCc2cc(Br)ccc2O)cc(=O)n(C)c1=O | -16% | -86% | -12% | -7.7% | ? | ? | 0% | 9%
13 | Cc1cc(C)nc(NS(=O)(=O)c2ccc(NC(=O)CCC(=O)O)cc2)n1 | 0% | . | . | . | 8% | 14% | . | 5%
14 | Cc1ccc(S(=O)(=O)Oc2ccccc2)cc1 | 4%[46.1 µM] | . | . | . | 16% | 2%[46.1 µM] | . | -17%
15 | O=C(O)CC/C(=N\Nc1ccc(Cl)cc1)c1cccs1 | -10%[46.1 µM] | -6% | . | . | -21% | 10%[46.1 µM] | -1% | 0%
16 | CCC1CCCCN1C(=O)C(=O)c1cn(CC(=O)N(CC)CC)c2ccccc12 (stereo unspecified) | 24%[46.1 µM] | 14% | . | . | -4% | 1%[46.1 µM] | 18% | -17%
17 | O=C(NCc1ccco1)c1cccs1 | 0% | -5% | -12% | -1.1% | -8% | 0% | 3% | -1%
18 | Cc1ccccc1N1CC(c2nc3ccccc3n2CCC2CCCCC2)CC1=O (stereo unspecified) | -2%[46.1 µM] | . | -8% | -3.0% | ? | 3%[46.1 µM] | . | .
19 | O=C(NCCCc1nc2ccccc2n1Cc1ccccc1F)c1ccco1 | 4%[46.1 µM] | . | -3% | -4.3% | -19% | ? | . | .
20 | Cc1cc(OCCN2CCC(Cc3ccccc3)CC2)ccc1[N+](=O)[O-] | 4%[46.1 µM] | -84% | . | . | -16% | ? | -19% | -21%
21 | CC(C)(C)OC(=O)NN1CC(=O)N2[C@@H](Cc3c([nH]c4ccccc34)C2(C)C)C1=O | 3%[46.1 µM] | 2% | . | . | -11% | ? | 0% | 8%
22 | O=C(NCCc1ccc(Cl)cc1)c1cccnc1 | -2% | -8% | 0% | 3.2% | 25% | 5% | -5% | -4%
23 | CC(=O)c1ccc(NC(=O)C(C)N2CCN(C/C=C/c3ccccc3)CC2)cc1 (stereo unspecified) | 19% | -3% | . | . | ? | -14%[14.2 µM] | -7% | 4%
24 | CCCc1cc(C(=O)N(C2CCCCC2)C2CCCCC2)no1 | . | -106% | -3% | -2.3% | -5% | . | -24% | 8%
25 | O=C(CSC1CC(=O)N(CC(c2ccccc2)c2ccccc2)C1=O)Nc1ccc(Cl)cc1 (stereo unspecified) | ? | ? | ? | -4.1% | ? | ? | -6% | 1%
26 | COC(=O)C1CCCN1C(=O)C12CC3CC(CC(C3)C1)C2 (stereo unspecified) | -1% | 6% | . | . | -6% | ? | 2% | 4%
27 | Cc1nn(CC(=O)Nc2ccc3c(c2)nc(CN2CCCC2)n3C)c(=O)c2ccccc12 | -1% | -7% | -12% | -2.0% | 4% | 2% | 2% | 5%
28 | N#Cc1c(N)n(CCNC(=O)c2ccccc2)c2nc3ccccc3nc12 | -5% | 0% | ? | -13% | -21% | -1% | 14% | 9%
29 | CCc1ccc(C(=O)c2cn(CC(=O)Nc3ccc4c(c3)OCO4)c3ccc(F)cc3c2=O)cc1 | -30%[46.1 µM] | . | ? | -7.2% | 2% | -22%[46.1 µM] | . | .
30 | Cc1cccc(NC(=O)N2CCC(N3CCN(Cc4ccccc4)C(=O)C3=O)CC2)c1C | 13%[46.1 µM] | . | -12% | 2.4% | 17% | . | . | .
31 | CCOC(=O)c1[nH]c2ccc(C)cc2c1N=C(C)N(C)C | 13% | -6% | -16% | 0.7% | 14% | 4% | 4% | 29%
32 | O=C(Cn1nc(-c2ccco2)ccc1=O)Nc1cc(Cl)ccc1Cl | . | -15% | . | . | -1% | . | 2% | 10%
33 | CC(C)(C)C(=O)Nc1nnc(SCC(=O)Nc2ccc3c(c2)OCO3)s1 | ? | -1% | 10% | -2.8% | -10% | 23% | 3% | -5%
34 | O=C1C2C3C=CC(C3)C2C(=O)N1Cc1ccccc1 (stereo unspecified) | 1% | -6% | -8% | 3.1% | -23% | 6% | 1% | 21%
35 | FC(F)(F)C(Oc1nc(NC2CCCCC2)nc(N2CCOCC2)n1)C(F)(F)F | 0% | -81% | ? | -5.9% | -1% | ? | -13% | -2%
36 | COc1cccc(CNC(=O)Cn2ncc3c4ccccc4n(Cc4ccccc4)c3c2=O)c1 | -8%[46.1 µM] | . | 4% | -2.3% | -6% | 27%[46.1 µM] | . | .
37 | CCOC(=O)c1c(C)[nH]c(C(=O)CN2CCOCC2)c1C | 9% | -5% | 1% | 7.7% | 20% | 8% | . | 4%
38 | CC(C)CNC(=O)CN1C(=O)NC2(CCCc3ccccc32)C1=O (stereo unspecified) | 1%[46.1 µM] | 8% | . | . | 21% | 11%[46.1 µM] | 2% | -8%
39 | Cc1cc(NC(=O)c2cc(CC(C)C)on2)n(-c2ccccc2)n1 | . | 0% | -5% | -6.6% | -18% | . | 2% | -9%
40 | Cc1cc(C)nc(SCc2ccc(C(=O)N/N=C/c3ccccc3C(=O)O)cc2)n1 | 5% | . | . | . | 6% | -8%[46.1 µM] | 0% | 10%
41 | COc1ccc(CC(=O)Nc2cccc(-c3nnc(-c4ccc(C)cc4)o3)c2)cc1OC | ? | -45% | ? | -5.7% | 4µM* | 9.2µM* | -7% | 5%
42 | Cc1nc(C(=O)NNC(=O)c2ccccc2Cl)c(C(F)(F)F)o1 | ? | -1% | . | . | 3% | 6%[46.1 µM] | 0% | 8%
43 | O=C(Nc1ccc(Cl)cn1)C1CCN(S(=O)(=O)c2cccs2)CC1 | . | -3% | . | . | ? | . | -1% | -3%
44 | O=C(CSCc1ccc(Br)cc1)Nc1ccc(S(=O)(=O)N2CCCCCC2)cc1 | ? | -15% | -5% | 2.1% | . | ? | -20% | -3%
45 | O=C(N/C(=C\c1ccco1)C(=O)N1CCCC(CO)C1)c1ccccc1 (stereo unspecified) | . | 7% | . | . | 13% | 19%[46.1 µM] | 1% | 1%
46 | O=C(COC(=O)c1cccc(NS(=O)(=O)c2ccc(F)c(F)c2)c1)NC(=O)NC1CCCC1 | ? | 3% | 2% | -11% | -13% | ? | -5% | 15%
47 | Cc1noc(NS(=O)(=O)c2ccc(NC(=O)COc3ccc(C#N)cc3)cc2)c1C | 14% | . | . | . | -5% | 4% | 3% | ?
48 | CCOC(=O)c1cn(-c2ccc(F)c(F)c2F)c2c(F)c(F)c(F)cc2c1=O | ? | 12% | 5% | -1.3% | -20% | -57% | 2% | 19%
49 | C=CCNC(=S)N/N=C(\C)c1ccccn1 | 0.21µM* | -167% | -5% | 5.4% | ? | 0.26µM* | -38% | ?
50 | NC(=O)c1ccc(NC(=O)COC(=O)C2COc3ccccc3O2)cc1 (stereo unspecified) | 8% | . | . | . | -14% | ? | 8% | 4%
51 | Cc1ccc(C(=O)Nc2nnc(SCc3cc(=O)n4ccc(C)cc4n3)s2)cc1 | 0%[46.1 µM] | . | -2% | 7.1% | 40%[activator] | . | . | .
52 | Cc1ccc(C(=O)c2ccccc2C(=O)OCC(=O)Nc2cccc([N+](=O)[O-])c2)cc1 | -25% | 29% | 0% | -7.1% | -5% | ? | -9% | 3%
53 | CCn1nnc(-c2ccc(N)cc2)n1 | 12%[46.1 µM] | 3% | . | . | 11% | ? | 1% | 15%
54 | Cc1cc(NC(=O)CSc2nc(=O)n3cc(Cl)ccc3n2)no1 | -2% | . | . | . | 2% | 1%[46.1 µM] | -1% | 6%
55 | CCOC(=O)c1sc2nc(CN3CCCCC3)nc(Cl)c2c1C | 9% | . | . | . | -9% | 25%[46.1 µM] | 0% | 7%
56 | Cc1ccc(S(=O)(=O)Nc2ccc3nc(-c4cccn4C)[nH]c3c2)cc1 | ? | 1.6µM* | 3% | -5.8% | 23% | ? | -5% | -7%
57 | c1ccc(CN2CCC3(CC2)Nc2ccccc2S3)cc1 | . | 9% | . | . | -21% | . | -1% | -14%
58 | CC(=O)Nc1ccc(N2C(=O)CSC2c2cccc(Br)c2)cc1 (stereo unspecified) | 0%[46.1 µM] | -8% | . | . | -22% | -28%[46.1 µM] | -1% | 6%
59 | CCCCNC(C(=O)Nc1ccc([N+](=O)[O-])cc1Br)c1ccccc1 (stereo unspecified) | 12% | -7% | -4% | -1.8% | -18% | ? | -19% | -1%

Screening data from PubChem.
